Compound activity as filed in PubChem BioAssay.
FGF22 binding = binders of human FGF22 protein, primary screen, FGF22 synaptogenesis inhibitor project, biophysical, thermal shift, single point. calls only at 9.99 µM. recombinant FGF22 thermal shift, SYPRO orange fluorescence; percent of sucrose octasulfate shift, DMSO zero. 340,000 compounds, 1.5% hits. Fibroblast growth factor 22 (Homo sapiens), Q9HCT0;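 active = melting point raised past a set limit in the mean and every replicate; three in four hits are not shown here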
Target sequence (Q9HCT0 whole entry, looked up): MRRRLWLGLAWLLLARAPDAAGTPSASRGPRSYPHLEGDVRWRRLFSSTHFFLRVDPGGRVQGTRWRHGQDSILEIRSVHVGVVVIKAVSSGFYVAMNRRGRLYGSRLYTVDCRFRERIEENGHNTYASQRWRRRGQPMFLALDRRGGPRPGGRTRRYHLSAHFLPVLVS
Ecoli rRNA inh = reduced GFP signal of wild-type E. coli, primary screen, bacterial rRNA inhibitor project, GFP/RFP fluorescence, OD600, single point | E. coli WT GFP vs humanized-ribosome RFP mutants, 24 h; active compounds read low; DMSO median 0, no signal -100 | GFP signal change (wild-type ribosome), % (test concentration not listed) | 350,000 compounds, 1.6% hits | AID 720706, 2013;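 active = significant combined selectivity score with lowered wild-type GFP, culture density cut under 30%, mutant RFP and density less affected; inactive = any of these conditions unmet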; also: one replicate is shown; some compounds called inactive have numbers as strong as hits
MLL AF4-AF9 inh = inhibitors of AF4 peptide binding to AF9, primary screen, biochemical, AlphaScreen, biotin-AF4 peptide, FLAG-AF9, single point; AID 651704, 2012; inhibition, % at 10 µM; 350,000 compounds, 0.47% hits; Protein AF-9 (Homo sapiens), P42568;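 active = every replicate reaching a set inhibition limit, whatever the replicate mean, cut at about 25% in these data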;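 also: 0% = plate neutral control median and 100% = total signal loss; the record names both 10 and 1 µM as test concentration; the first replicate is given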
Target sequence (P42568 whole entry, looked up): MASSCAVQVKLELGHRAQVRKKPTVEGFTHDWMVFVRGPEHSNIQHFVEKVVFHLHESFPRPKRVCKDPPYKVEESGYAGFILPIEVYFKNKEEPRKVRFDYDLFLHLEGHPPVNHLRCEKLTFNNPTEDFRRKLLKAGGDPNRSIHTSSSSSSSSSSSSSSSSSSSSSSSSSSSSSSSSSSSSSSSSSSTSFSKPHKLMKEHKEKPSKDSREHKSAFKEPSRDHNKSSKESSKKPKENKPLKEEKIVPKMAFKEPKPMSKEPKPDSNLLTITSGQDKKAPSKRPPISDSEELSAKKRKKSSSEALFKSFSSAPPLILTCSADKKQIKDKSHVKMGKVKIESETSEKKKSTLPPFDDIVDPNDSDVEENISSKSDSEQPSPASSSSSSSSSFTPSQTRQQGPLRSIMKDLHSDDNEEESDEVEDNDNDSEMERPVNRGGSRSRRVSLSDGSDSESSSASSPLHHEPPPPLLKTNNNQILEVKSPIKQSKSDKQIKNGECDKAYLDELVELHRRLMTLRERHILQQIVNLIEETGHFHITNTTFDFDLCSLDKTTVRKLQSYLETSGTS
Ecoli rRNA inh OD600 = second read-out of Ecoli rRNA inh, no call of its own (marks repeat the call); OD600 change, %; measured here: OD600 growth;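 optical density of the mix in the first replicate; 0 = DMSO median and -100 = no signal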
Ecoli rRNA inh RFP = second read-out of Ecoli rRNA inh, no call of its own (marks repeat the call); RFP signal change, %; measured here: RFP humanized mutant strains;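 first replicate; 0 = DMSO median and -100 = no signal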
Active calls of the source: *; i = inactive; & = joins results of further samples. Some of the compounds tested; the hit share may differ from the screen's.

molecule	FGF22 binding	Ecoli rRNA inh	Ecoli rRNA inh OD600	Ecoli rRNA inh RFP	MLL AF4-AF9 inh
C[C@@H]1CCCCO[C@@H](CN(C)CC2CCCCC2)[C@@H](C)CN([C@H](C)CO)C(=O)c2cc(NS(=O)(=O)c3cccs3)ccc2O1	i	1	-9	2.8	1.6
COc1cc(OCc2ccc(C)cc2)ccc1CNC[C@H]1O[C@@H](n2cnc(C(N)=O)n2)[C@H](O)[C@@H]1O	i	11	6	1.8	0.8
CO[C@H](CN(C)C(=O)Nc1ccc(Cl)cc1)[C@H](C)CN(Cc1ccccc1Cl)[C@H](C)CO	i	-3	-11	2.2	1.8
Cc1ccc(S(=O)(=O)N[C@H]2C=C[C@@H](CC(=O)NCc3ccncn3)O[C@@H]2CO)cc1	i	5	3	0.7	-0.2
C[C@H](CO)N1C[C@H](C)[C@@H](CN(C)CC2CCCC2)Oc2ncc(-c3ccc(C#N)cc3)cc2C1=O	i	1	11	-2.5	-0.7
Cc1noc(C)c1NC(=O)Nc1ccc2c(c1)C(=O)N([C@@H](C)CO)C[C@@H](C)[C@@H](CN(C)S(C)(=O)=O)OCCCC[C@@H](C)O2	i	2	16	1.3	0.0
COc1ccc2c3c([nH]c2c1)[C@@H](CO)N(C(=O)C1CC1)CC31CN(S(C)(=O)=O)C1	i	1	8	-1.1	0.9
COCCN1C(=O)CCC1(C)C(=O)Nc1c(C)cccc1C (stereo not given)	i	8	1	0.8	-0.7
CN1N=C(N)c2cn(C3OC(COP(=O)(O)O)C(O)C3O)c3ncnc1c23 (stereo not given)	i	17	18	5.0	-9.0
COc1ccc(CN(C)C[C@H]2Oc3c(NS(=O)(=O)c4ccc(OC)cc4)cccc3C(=O)N([C@H](C)CO)C[C@@H]2C)cc1	i	2	-5	-0.6	-0.2
C[C@@H]1CN([C@@H](C)CO)C(=O)c2cc(N(C)C)ccc2O[C@@H]1CN(C)C(=O)NC1CCCCC1	i	2	2	-0.6	0.5
CN1c2ccc(C3=CCCCC3)cc2[C@@H]2[C@@H](CCN2S(=O)(=O)c2ccccc2)[C@@H]1CO	i	-1	8	-1.9	7.7
COc1ccc(S(=O)(=O)Nc2ccc3c(c2)CC(=O)N([C@H](C)CO)C[C@H](C)[C@H](CN(C)C)O3)cc1	i	3	4	1.1	-5.2
C[C@H]1CN([C@@H](C)CO)C(=O)c2cc(NS(=O)(=O)c3ccc(F)cc3)ccc2O[C@@H]1CN(C)Cc1ccc(C(=O)O)cc1	i	6	12	-1.0	0.0
C[C@H]1CN([C@@H](C)CO)C(=O)c2cccc(NC(=O)Nc3ccc(F)cc3)c2O[C@H]1CN(C)S(=O)(=O)c1ccc(Cl)cc1	i	-5	-14	0.3	-1.5
N#Cc1cccc(-c2ccc([C@H]3[C@@H](CO)N4CCCCN(C(=O)Nc5ccccc5)C[C@H]34)cc2)c1	i	-16	-46	12	5.4
CN1C(=O)c2cc(NC(=O)C3CCCC3)ccc2OC[C@H]2O[C@H](CC(=O)O)CC[C@H]21	i	3	0	1.4	-1.6
C[C@H]1CN([C@@H](C)CO)C(=O)c2cc(NC(=O)CCCCCC(=O)Nc3ccccc3N)ccc2O[C@H]1CN(C)C(=O)Nc1ccc(F)cc1	i	2	6	1.8	-1.8
O=C(NC1CCCC1)[C@@H]1[C@@H](CO)[C@@H]2Cn3c(cccc3=O)[C@H]1N2C(=O)CC1CC1	i	3	10	-2.6	-0.7
CC(C)NC(=O)N(C)C[C@H]1Oc2ncc(C#CC3CCCC3)cc2C(=O)N([C@@H](C)CO)C[C@@H]1C	i	3	2	1.3	0.8
C[C@@H]1CN([C@H](C)CO)S(=O)(=O)c2ccc(C#CC3CC3)cc2O[C@H]1CN(C)C(=O)CC1CC1	i	-46	-70	-10	0.2
COc1ccc(S(=O)(=O)N(C)C[C@@H]2Oc3ccc(NC(=O)Nc4ccc(C(F)(F)F)cc4)cc3C(=O)N([C@H](C)CO)C[C@H]2C)cc1	i	-1	3	-1.6	-0.2
Cc1ccc(S(=O)(=O)NCC[C@H]2CC[C@@H](NC(=O)C3CCOCC3)[C@@H](CO)O2)cc1	i	4	0	-2.5	-1.1
COc1ccc(NC(C)=O)cc1S(=O)(=O)NC(Cc1ccccc1)C(=O)NC(C)c1ccccn1 (stereo not given)	i	8	10	-3.2	0.2
COc1ccc(NC(=O)N(C)C[C@@H]2Oc3c(NS(=O)(=O)c4cccs4)cccc3C(=O)N([C@@H](C)CO)C[C@@H]2C)cc1	i	3	-3	-0.1	0.6
C[C@@H]1CN([C@H](C)CO)C(=O)c2cc(NC(=O)C3CCCCC3)ccc2O[C@@H]1CN(C)Cc1ccc(C(=O)Nc2ccccc2N)cc1	i	3	1	-0.7	0.1
C[C@H](CO)N1C[C@H](C)[C@@H](CN(C)C(=O)C2CCCCC2)Oc2ncc(-c3ccncc3)cc2C1=O	i	3	0	0.4	-1.1
COc1ccc(Cl)cc1-c1cc(C(=O)Nc2ccc(C)c(NS(C)(=O)=O)c2)[nH]n1	i	-24	-36	1.3	-3.7
COc1ccccc1-c1ccc([C@H]2[C@@H](CO)N3CCCCN(S(=O)(=O)c4cn(C)cn4)C[C@@H]23)cc1	i	-4	-14	3.1	2.4
CC(C)NC(=O)Nc1ccc2c(c1)C(=O)N(C)[C@@H]1CC[C@H](CC(=O)NCC3CCCCC3)O[C@H]1CO2	i	-2	-2	-4.1	0.3
Cc1ccc(S(=O)(=O)Nc2ccc3c(c2)C(=O)N([C@H](C)CO)C[C@H](C)[C@@H](CN(C)S(=O)(=O)c2cn(C)cn2)OCCCC[C@H](C)O3)cc1	i	-1	0	1.5	-1.9
O=S(=O)(N[C@H]1CC[C@@H](CCn2cc(-c3ccccc3F)nn2)O[C@H]1CO)c1ccc(Cl)cc1	i	-10	-30	32	2.3
Cc1ccc(S(=O)(=O)N(C)C[C@@H]2OCCCC[C@@H](C)Oc3ccc(NS(=O)(=O)c4ccc(Cl)cc4)cc3C(=O)N([C@@H](C)CO)C[C@@H]2C)cc1	i	1	3	-1.5	-3.4
CNC[C@H]1OCCCC[C@H](C)Oc2ccc(NS(=O)(=O)c3ccc(F)cc3)cc2C(=O)N([C@@H](C)CO)C[C@H]1C	i	1	-1	-2.1	-11
C[C@H]1CN([C@@H](C)CO)C(=O)c2cc(C#Cc3ccccc3F)cnc2O[C@H]1CN(C)C(=O)C1CCOCC1	i	3	2	-2.5	-3.1
COc1ccc2c3c([nH]c2c1)[C@H](CO)N(Cc1cc(F)ccc1F)CC31CCN(C(C)=O)CC1	i	5	3	3.8	0.2
COc1cccc(S(=O)(=O)N[C@H]2CC[C@@H](CC(=O)NCc3ccccc3)O[C@@H]2CO)c1	i	0	3	-1.8	0.1
CN1[C@@H]2c3ccc(-c4cccnc4)c(=O)n3C[C@@H]2[C@@H](CO)[C@@H]1C(=O)NCC1CCCCC1	i	-1	-7	-1.7	2.3
C[C@H]1CN([C@@H](C)CO)S(=O)(=O)c2ccc(C#CCN(C)C)cc2O[C@H]1CN(C)Cc1ccccc1	i	1	11	-1.0	8.8
C[C@H](CO)N1C[C@H](C)[C@H](CN(C)C(=O)Nc2ccccc2F)Oc2cc(-c3ccc(C(=O)N(C)C)cc3)ccc2S1(=O)=O	i	-2	4	-1.0	-1.7
C[C@H]1CN([C@@H](C)CO)C(=O)CCCn2nncc2CO[C@@H]1CN(C)Cc1ccc(C(F)(F)F)cc1	i	5&-1	13&1	-4.4&4.0	-4.5&2.1
COCC(=O)Nc1ccc2c(c1)[C@@H]1C[C@H](CC(=O)NC3CCCC3)O[C@@H](CO)[C@@H]1O2	i	4	7	-2.1	-0.5
CCCNC(=O)N1[C@H](C#N)[C@H](c2ccc(-c3cccc(OC)c3)cc2)[C@H]1CO	i	1	-14	-1.3	0.4
Nc1nc2cc(Cl)ccc2n1N	i	2	2	-1.2	-14
C[C@@H]1CCCCO[C@H](CN(C)S(=O)(=O)c2ccccc2)[C@H](C)CN([C@@H](C)CO)C(=O)c2cc(NC(=O)CCC(F)(F)F)ccc2O1	i	-4	-1	1.2	-3.1
COC(=O)[C@@]1(Cc2ccc(F)cc2)[C@H]2c3cc(C(=O)N(C)C)n(Cc4ccsc4Br)c3C[C@H]2CN1C(=O)c1ccccc1	i	11	4	0.9	7.2
COc1cc(CNC(=O)Nc2nc(C(N)CCc3ccccc3)cs2)cc(OC)c1OC (stereo not given)	i	3	0	2.1	12
COc1ccccc1-c1ccc([C@@H]2[C@@H](CO)N3CCCCN(C(=O)c4ccncc4)C[C@H]23)cc1	i	0	-2	-2.3	3.6
CCCNC(=O)[C@H]1N[C@H]2c3ccc(-c4cccc(F)c4)c(=O)n3C[C@H]2[C@@H]1CO	i	-3	-7	-1.8	-1.9
C[C@H]1CN([C@@H](C)CO)C(=O)Cc2cc(NC(=O)CCCCCC(=O)Nc3ccccc3N)ccc2O[C@H]1CN(C)CC1CC1	i	2	1	0.2	0.4
CC(C)C#Cc1cnc2c(c1)C(=O)N([C@@H](C)CO)C[C@H](C)[C@H](CN(C)C(=O)Cc1ccncc1)O2	i	2	-2	-3.4	0.2
CCCn1nc(C(=O)Nc2ccc(-n3cnnn3)cc2)c2ccccc2c1=O	i	-1	0	-0.4	7.6
CC(C)(O)C#Cc1ccc([C@@H]2[C@@H](CO)N3CCCCN(Cc4ccccc4F)C[C@@H]23)cc1	i	2	21	-0.1	2.4
CC(NC(=O)c1ccccc1Cl)C(=O)Nc1ccc2c(c1)OCO2 (stereo not given)	i	6	10	-3.0	1.5
C[C@H]1CN([C@@H](C)CO)C(=O)Cc2cc(NC(=O)Cc3cn(C)c4ccccc34)ccc2O[C@@H]1CN(C)Cc1ccc(C(F)(F)F)cc1	i	1	1	-1.5	-7.3
Cc1ccc(S(=O)(=O)N(C)C[C@H]2Oc3cc(C4=CCCC4)ccc3S(=O)(=O)N([C@H](C)CO)C[C@H]2C)cc1	i	0	8	1.3	0.7
Cc1ccc(OC2CCN(C(=O)[C@H]3O[C@@H](n4ccc(N)nc4=O)[C@H](O)[C@@H]3O)CC2)cc1	i	19	26	1.1	-0.5
COc1ccc(CN(C)C[C@@H]2Oc3c(NC(=O)c4ccc(-c5nccs5)cc4)cccc3C(=O)N([C@H](C)CO)C[C@@H]2C)cc1	i	-6	-8	0.5	4.8
N#C[C@H]1[C@H](c2ccc(C#CC3CCCCC3)cc2)[C@@H](CO)N1C(=O)Cc1ccccn1	i	-39	-60	4.7	4.6
CCCc1cn(CC[C@H]2CC[C@@H](NC(=O)C3CCCCC3)[C@@H](CO)O2)nn1	i	0	4	0.1	-0.4
C[C@@H]1CN([C@@H](C)CO)C(=O)c2cc(NC(=O)Nc3cccc4ccccc34)ccc2O[C@@H]1CN(C)Cc1ccncc1	i	-4	-19	1.4	3.6
COc1ccc(S(=O)(=O)Nc2ccc3c(c2)C(=O)N([C@@H](C)CO)C[C@H](C)[C@H](CN(C)C(=O)c2ccccc2)OCCCC[C@H](C)O3)cc1	i	2	-7	-0.8	1.2
O=C(C[C@@H]1CC[C@H](NC(=O)Nc2ccc(F)cc2)[C@@H](CO)O1)NCc1cccc(F)c1	i	1&5	1&6	-1.1&0.0	-1.4&-2.3

Whole records as entered above. Order of screens: FGF22 binding, Ecoli rRNA inh, Ecoli rRNA inh OD600, Ecoli rRNA inh RFP, MLL AF4-AF9 inh
Entry for CC(C)NC(=O)Nc1ccc2c(c1)C(=O)N(C)[C@@H]1CC[C@H](CC(=O)NCC3CCCCC3)O[C@H]1CO2 : i, -2, -2, -4.1, 0.3
Entry for Cc1ccc(S(=O)(=O)N[C@H]2C=C[C@@H](CC(=O)NCc3ccncn3)O[C@@H]2CO)cc1 : i, 5, 3, 0.7, -0.2
Entry for CO[C@H](CN(C)C(=O)Nc1ccc(Cl)cc1)[C@H](C)CN(Cc1ccccc1Cl)[C@H](C)CO : i, -3, -11, 2.2, 1.8
Entry for O=C(NC1CCCC1)[C@@H]1[C@@H](CO)[C@@H]2Cn3c(cccc3=O)[C@H]1N2C(=O)CC1CC1 : i, 3, 10, -2.6, -0.7
Entry for CC(C)C#Cc1cnc2c(c1)C(=O)N([C@@H](C)CO)C[C@H](C)[C@H](CN(C)C(=O)Cc1ccncc1)O2 : i, 2, -2, -3.4, 0.2
